PABP polyA inh: blocks human PABP binding to poly(A) RNA. P11940. fluorescence polarization. inhibition, % at 35 µM. 290,000 compounds, 1% hits. AID 2014;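 active means 50% or more with normal probe brightness, or confirmed in later tests; inconclusive means above 50% with abnormal brightness, or retests that disagree; inactive means below 50% or failed in later tests; about a fifth of its hits are not listed in these tables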;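 further: calls also rest on retests at 20 µM and on dose response follow-up; controls were probe without protein and protein plus probe with vehicle; some compounds called inactive have numbers as strong as hits; many hits fall short of the cut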
Rce1 inhib: blocks yeast Ras-converting enzyme; yeast membranes, quenched prenylated peptide cleavage fluorescence; calls only; 290,000 compounds, 0.27% hits; AID 2563;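 active means fall in fluorescence gain of 50% or more versus controls, with final raw signal at or below 3038400; inconclusive means same 50% fall but final raw signal above 3038400; inactive means fall in fluorescence gain under 50%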;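 further: plate controls were neutral control wells for no effect and wells lacking membranes for full effect; tested at 10 µM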
Target sequence (Q03530 whole entry, looked up): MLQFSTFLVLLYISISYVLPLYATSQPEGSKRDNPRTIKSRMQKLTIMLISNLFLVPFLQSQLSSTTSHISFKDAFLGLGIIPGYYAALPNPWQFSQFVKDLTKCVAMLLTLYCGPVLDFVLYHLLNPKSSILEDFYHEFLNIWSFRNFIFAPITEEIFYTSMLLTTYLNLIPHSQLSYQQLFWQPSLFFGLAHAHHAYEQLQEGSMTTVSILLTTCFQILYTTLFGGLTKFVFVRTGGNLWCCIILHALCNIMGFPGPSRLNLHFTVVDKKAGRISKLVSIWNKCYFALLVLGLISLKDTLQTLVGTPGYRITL
Yeast UUG start: yeast start codon fidelity modulation. AID 602363. activity score, % at 18.7 µM. 350,000 compounds, 0.13% hits. S. cerevisiae UUG-firefly luciferase reporter, luminescence/redox ratio;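 active means replicate mean at a twofold rise or more, about +100% in these data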;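 further: firefly luciferase made from a UUG start codon reports start codon fidelity; reporter light over untreated wells divided by growth signal over untreated wells; some hits fall short of that in this replicate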
MT1-MMP act inh: inhibitors of human MT1-MMP activation | HT1080 RFP-PRO-GFP cells, GFP/RFP ratio fluorescence, overnight; percent of plate control window, DMSO zero | 360,000 compounds, 0.061% hits | P50281 | AID 651647 | GFP/RFP ratio change, % at 20 µM;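 active means GFP/RFP ratio change of at least 30% with cell ATP level not reduced by more than half and red fluorescence within 50% of control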; further: strong numbers were not always called active
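Assay system: HT1080 RFP-PRO-GFP cells | Dosing: 20 µM single dose, 1% DMSO | Incubation: Cells overnight before dosing, compound overnight, 37 °C, 5% CO2 | Evaluation: GFP/RFP fluorescence ratio | Control set: DMSO-only wells and HT1080 RFP-L50D-GFP cell wells as references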
CSC inhib: blocks cancer stem cells; 300,000 compounds, 1.1% hits; cancer stem cell-like cells viability, luminescence; inhibition, % at 7.5 µM; AID 2717;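 active means mean at 75% or more and at least half the replicates too; inconclusive means mean and replicates disagree; tested in HMLE shEcad cells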;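 further: 0% = median of negative and 100% = median of positive control wells; the first replicate is given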
HIV Env fusion: blocks HIV Env-driven cell-cell fusion. HeLa-JRFL Env/CEM21 cell fusion, luciferase. inhibition, % at 12.3 µM. 360,000 compounds, 1.1% hits;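 active means mean replicate inhibition score of at least 50 and every replicate individually at or above 50; inconclusive means only one of the two criteria met; inactive means mean below 50 and not all replicates reaching 50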;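 further: 0% = plate neutral controls and 100% = maraviroc near 300 nM; one replicate is shown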
eIF4H FP inh: inhibitors of RNA binding by human eIF4H; inhibition, % at 35 µM; 290,000 compounds, 0.94% hits; Q15056; eIF4H fluorescence polarization binding assay;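 active means 50% or more with normal probe brightness, or confirmed in later tests; inconclusive means above 50% with abnormal brightness, or retests that disagree; inactive means below 50% or failed in later tests; about a fifth of its hits are not listed in these tables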;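 further: calls also rest on retests at 20 µM and on dose response follow-up; 0% = protein and probe with vehicle and 100% = probe without protein; strong numbers were not always called active; many hits fall short of the cut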
MT1-MMP act inh RFP: further read-out of MT1-MMP act inh, marked with its call; RFP signal change, %; measured here: RFP expression control read;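 0 = vehicle wells; hits needed this value within 50% of zero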
* hit, by the source's call; i = inactive; u = inconclusive; x = no result given. Random draw from the library; overall some 3% were active at least once.

Screens in order – PABP polyA inh	Rce1 inhib	Yeast UUG start	MT1-MMP act inh	MT1-MMP act inh RFP	CSC inhib	HIV Env fusion	eIF4H FP inh
O=C(c1cc(-c2cccs2)on1)N1CCOCC1
    4	i	11	11	6	-4	x	0
O=C(NC1CCCCC1)C1CCN(S(=O)(=O)c2cccc3nsnc23)CC1
    2	i	-30	0	0	-14	x	-2
O=C(O)C(Cc1ccccc1)n1cccc1 (stereo unspecified)
    11	i	-17	-5	5	-13	x	5
NC(=O)COc1ccc(=O)n(-c2ccccc2)n1
    0	i	-27	-6	1	-7	5	-4
Cc1ccccc1C(=O)N1CCCC(CCC(=O)N2CCN(c3ccccn3)CC2)C1 (stereo unspecified)
    2	i	-22	3	-9	-4	-4	-2
C=CCn1c(=O)c(CCC(=O)Nc2ccc(N3CCOCC3)cc2)nc2cc(C(F)(F)F)ccc21
    x	i	7	-2	-1	-18	8	x
COC(=O)C1=C(CN2CCSCC2)NC(=O)NC1c1cc(C)ccc1C (stereo unspecified)
    -15	i	-3	1	2	2	x	3
CC1=[N+](CC(=O)NC(C)(C)C)CCc2ccccc21
    5	i	x	1	6	-9	x	39
CCc1ccc(CNC(=O)C2CCCN(c3nn4c(=O)cc(C)nc4s3)C2)cc1 (stereo unspecified)
    -8	i	-3	8	5	1	5	-2
COC(=O)C1C(=O)C2=C(CC1C)NC(C)=C(C(=O)OCCOc1ccccc1)C2c1ccc(C)o1 (stereo unspecified)
    0	i	-3	1	-1	-7	-1	15

Part of the list above, as labelled records:
canonical_smiles: O=C(NC1CCCCC1)C1CCN(S(=O)(=O)c2cccc3nsnc23)CC1
  PABP polyA inh: 2
  Rce1 inhib: i
  Yeast UUG start: -30
  MT1-MMP act inh: 0
  MT1-MMP act inh RFP: 0
  CSC inhib: -14
  HIV Env fusion: x
  eIF4H FP inh: -2
canonical_smiles: O=C(O)C(Cc1ccccc1)n1cccc1 (stereo unspecified)
  PABP polyA inh: 11
  Rce1 inhib: i
  Yeast UUG start: -17
  MT1-MMP act inh: -5
  MT1-MMP act inh RFP: 5
  CSC inhib: -13
  HIV Env fusion: x
  eIF4H FP inh: 5
canonical_smiles: NC(=O)COc1ccc(=O)n(-c2ccccc2)n1
  PABP polyA inh: 0
  Rce1 inhib: i
  Yeast UUG start: -27
  MT1-MMP act inh: -6
  MT1-MMP act inh RFP: 1
  CSC inhib: -7
  HIV Env fusion: 5
  eIF4H FP inh: -4
canonical_smiles: Cc1ccccc1C(=O)N1CCCC(CCC(=O)N2CCN(c3ccccn3)CC2)C1 (stereo unspecified)
  PABP polyA inh: 2
  Rce1 inhib: i
  Yeast UUG start: -22
  MT1-MMP act inh: 3
  MT1-MMP act inh RFP: -9
  CSC inhib: -4
  HIV Env fusion: -4
  eIF4H FP inh: -2

Continuation:
Screens in order – PABP polyA inh	Rce1 inhib	Yeast UUG start	MT1-MMP act inh	MT1-MMP act inh RFP	CSC inhib	HIV Env fusion	eIF4H FP inh
COc1ccc(C(=O)NCC(=O)N=Nc2c(O)n(C)c3ccccc23)cc1OC
    0	i	-15	4	7	-28	2	-1
COc1cccc(C(=O)N2CCN(C(=O)c3ccc(-c4ccccc4)cc3)CC2)c1OC
    -3	i	x	0	-5	-3	12	8
O=C1CCC(c2ccccc2)(C2CCN(Cc3ccccc3)CC2)C(=O)N1 (stereo unspecified)
    x	i	-34	2	2	-13	3	x
CCCCN(CCCC)S(=O)(=O)c1ccc2[nH]c(=O)[nH]c2c1
    8	i	-8	3	0	-5	x	4
O=C(NCC(=O)N(c1cccnc1)C(C(=O)NCc1ccco1)c1ccccc1)c1ccco1 (stereo unspecified)
    -9	i	-15	-1	1	4	-83	-1
Cc1cc(C)c(C(=O)CSc2nnc(N)s2)cc1C
    6	x	-12	-4	-8	-15	-11	-10
CCCCOC(=O)Nc1nc2ccc([N+](=O)[O-])cc2s1
    2	i	x	5	2	-11	-10	-10
CCOC(=O)CC1(C)OCC(C[N+]2(C)CCCCC2)O1 (stereo unspecified)
    2	i	x	-4	2	-13	3	4
O=C(Nc1ccccc1N1CCCC1)c1cc2ccccc2o1
    17	i	-16	-13	-1	-3	-110	9
CCc1ccc(/C=C2\SC(=S)N(CCCC(=O)Nc3ccccc3C(=O)O)C2=O)cc1
    11	i	-47	4	0	30	-60	-5

Continued.
Screens in order – PABP polyA inh	Rce1 inhib	Yeast UUG start	MT1-MMP act inh	MT1-MMP act inh RFP	CSC inhib	HIV Env fusion	eIF4H FP inh
COC(=O)[C@@]1(Cc2ccc(OC)cc2)[C@H]2c3cc(C(=O)N4CCCC4)n(CCO)c3C[C@H]2CN1C(=O)c1ccccc1
    -11	x	x	x	x	-27	-24	-9
COc1ccc(S(=O)(=O)N2CCCCC2)cc1C(=O)N1CCCCCC1
    -3	i	-2	3	4	-28	-6	1
C=CCSC(=C(C#N)C#N)c1cc2c([nH]1)CCCC2
    20	i	x	-9	-4	101*	x	8
COc1ccc(-c2cc(=O)oc3c(C)c(OCC(=O)N[C@@H](Cc4ccc(O)cc4)C(=O)O)ccc23)cc1
    8	i	5	0	3	-4	x	3
CCNS(=O)(=O)c1ccc(NC(=O)Nc2cccc(C(F)(F)F)c2)cc1
    4	i	-8	1	-7	u	-11	-5
CCOc1cc(CNC(C)C)c(Cl)cc1OCC(=O)NCCc1ccccc1
    -8	i	-6	1	4	2	x	0
Cc1ccc(C(=O)Oc2ccc(Br)cc2C(=S)N2CCOCC2)cc1
    1	i	-3	1	2	x	1	-2
Cc1ccc(N(CC(=O)N2CCOCC2)S(C)(=O)=O)cc1
    3	i	x	2	0	0	1	-12
O=C(OCC(=O)N1CCCCC1)c1cc(S(=O)(=O)N2CCOCC2)c(Cl)cc1Cl
    x	x	-3	1	0	-19	13	x
O=C(C(NS(=O)(=O)c1cccs1)c1ccccc1)N1CCN(c2ccccc2)CC1 (stereo unspecified)
    53*	i	6	-11	-6	-13	-58	64*

Additional structures.
Screens in order – PABP polyA inh	Rce1 inhib	Yeast UUG start	MT1-MMP act inh	MT1-MMP act inh RFP	CSC inhib	HIV Env fusion	eIF4H FP inh
O=C(NCc1cccc(Br)c1)C1CC(c2cc(C(F)(F)F)cc(C(F)(F)F)c2)=NO1 (stereo unspecified)
    x	i	-22	1	-1	0	-13	x
Cc1ccc2nc(C)cc(C(=O)NC3CCCCCC3)c2c1
    x	x	-1	1	-4	11	-1	x
COC(=O)[C@]1(Cc2ccccc2)N[C@H](c2ccc(-c3cc(C(C)=O)cs3)cc2)[C@@H]2C(=O)N(C)C(=O)[C@@H]21
    x	i	-10	0	0	-6	-50	x
COc1ccc(S(=O)(=O)Cc2ccc(C(=O)NCc3cccs3)o2)cc1
    -6	i	6	-2	-4	2	-4	-6
O=C(NCCCN1CCCC1=O)c1cccc(NS(=O)(=O)c2ccccc2)c1
    x	i	-4	1	2	-9	8	x
CCC1(C)Cc2ccccc2C(=S)N1 (stereo unspecified)
    -3	x	-9	0	1	0	0	-13
Cc1cccc(OC(C)C(=O)Nc2nc(-c3cccnc3)cs2)c1 (stereo unspecified)
    x	x	-11	-3	0	x	4	x
Cc1ccc(S(=O)(=O)N2CCC(=O)N(C(COCc3cccc(C(F)(F)F)c3)C(C)C)CC2)cc1 (stereo unspecified)
    -2	i	-7	-11	-6	1	x	-11
CCOCCCNC(=O)C(NC(=O)CNC(=O)c1ccccc1)c1ccccc1 (stereo unspecified)
    3	x	-8	0	6	-5	-46	3
O=C(Cn1cnc2ccccc2c1=O)N1CCc2ccccc2C1
    -2	i	x	-2	0	-11	3	-1

More results follow.
Compound,PABP polyA inh,Rce1 inhib,Yeast UUG start,MT1-MMP act inh,MT1-MMP act inh RFP,CSC inhib,HIV Env fusion,eIF4H FP inh
CCN(CC)S(=O)(=O)c1cc(OC)ccc1N=Nc1ccc(O)c2ncccc12,10,i,-21,19,-28,94*,51,7
CC(=O)NCCc1nc2ccccc2n1CCCCOc1ccccc1,2,i,-8,-4,-3,7,-4,-6
Cc1ccc(CN2C(=O)C(C)Oc3ccccc32)cc1 (stereo unspecified),-5,i,x,-8,-5,-10,20,-6
COc1ccc(CNC(=O)C2CCCN2CCc2ccccc2)cc1OC (stereo unspecified),3,i,x,0,-6,-5,12,9
COc1cc(Cl)c(C)cc1NC(=O)CSc1ccc(NC(C)=O)cc1,-2,i,x,7,-6,-2,x,-6
Cc1ccc2nc(NCC(=O)O)nc(-c3ccccc3)c2c1,2,i,5,0,-13,6,x,-3
CCn1c(SCC(=O)c2ccccc2)nnc1-c1cnccn1,0,i,-26,0,-1,-11,-83,-4
O=C(CSc1n[nH]c(-c2ccccn2)n1)Nc1ccc(F)cc1,-1,i,-34,2,-1,-7,7,-5
O=C(c1cc(COc2ccc(F)cc2F)on1)N1CC[C@@H]2CCCC[C@H]2C1,-12,i,15,1,1,22,-10,-9
NS(=O)(=O)c1ccc(NC(=O)CSc2nc(Nc3ccccc3)nc(N3CCOCC3)n2)cc1,7,i,7,-1,-5,-8,26,-4
Cc1ccccc1CS(=O)(=O)CC(O)CN1CCCC1=O (stereo unspecified),19,i,4,-3,2,-4,-3,0
CC(=O)Oc1ccccc1Cn1c(C)c(C(=O)NCCC#N)sc1=O,x,x,-3,1,1,x,-2,x
COC(C[C@H](O)C[C@@H](O)[C@@H](C)OCc1ccccc1)OC,-3,i,-3,2,1,x,-28,0
Cc1c(CCOC(=O)C23CC4CC(CC(C4)C2)C3)sc[n+]1Cc1ccccc1,-8,i,14,3,1,45,4,-2
Cc1nnc(NC(=O)CN2C(=O)c3ccccc3S2(=O)=O)s1,4,i,4,14,3,-7,x,-2
CC(C)(CCO)Nc1ncnc2onc(-c3ccc(F)cc3)c12,-8,i,-17,-6,-6,-15,1,-18
N#CC1(NC(=O)Cn2cc(C(F)(F)F)ccc2=O)CCCC1,x,x,-2,-4,0,x,-2,x
O=C(C1CC(=O)N(c2ccccc2)C1)N1CCN(c2ccccc2F)CC1 (stereo unspecified),5,i,-3,1,3,-21,-10,0
N#C/C(=C/C1=C(N2CCOCC2)C(=C/c2ccccc2)/CC1)C(=O)Nc1ccccc1F,x,x,-1,8,60,x,6,x
CCOC(=O)Cn1c(=NC(=O)c2ccc([N+](=O)[O-])s2)sc2ccccc21,0,i,x,-37,-6,12,-13,7
Cc1cn(C2CC(OC(=O)C(C)C)C(CO)O2)c(=O)[nH]c1=O (stereo unspecified),x,x,-11,-1,3,1,x,x

Bioassay records as filed in PubChem.
